HNF4A DNA FP – change in binding of human HNF4 alpha to DNA | P41235 | HNF4a-FITC DNA binding, fluorescence polarization, 1 h | activity change, % at 10 µM | 360,000 tested, 0.3% active; in the data active means activity change above about 30%, passing the limit was not always enough;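 further: controls were the assay level and a saturating level of protein; the project sought stronger binding though the title names inhibitors; some compounds called inactive have numbers as strong as hits; positive values seem to mean higher polarization but the record does not say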
ALR H2O2 inh – human ALR oxidase inhibition via reduced H2O2 | inhibition, % (no concentration beside the values) | 290,000 tested, 3.8% active | purified ALR, DTT oxidation, H2O2 HRP-luminol luminescence | AID 485317;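 active means mean and each replicate at 75% or more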;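 further: stock transfer was 7.5 nL into about 7.5 µL; 0% = neutral wells and 100% = wells with inactivated enzyme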
Target sequence (P55789 whole entry, looked up): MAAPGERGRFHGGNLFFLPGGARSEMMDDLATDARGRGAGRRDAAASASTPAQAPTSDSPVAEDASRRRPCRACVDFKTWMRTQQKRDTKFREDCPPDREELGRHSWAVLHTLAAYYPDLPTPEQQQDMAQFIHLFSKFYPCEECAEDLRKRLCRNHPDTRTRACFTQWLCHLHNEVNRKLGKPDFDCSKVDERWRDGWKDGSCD
UCH37 inh – human UCH37 deubiquitinating enzyme inhibition; Q9Y5K5; purified proteasome/UCH37, Ub-AMC cleavage fluorescence; inhibition, % (test concentration not listed); 330,000 tested, 0.33% active; AID 588478;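 active means mean of two replicates above 20%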;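 further: 0% = compound-free wells with enzyme and 100% = wells lacking proteasome; stock transfer was 100 nL into about 20 µL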
Target sequence (Q9Y5K5 whole entry, looked up): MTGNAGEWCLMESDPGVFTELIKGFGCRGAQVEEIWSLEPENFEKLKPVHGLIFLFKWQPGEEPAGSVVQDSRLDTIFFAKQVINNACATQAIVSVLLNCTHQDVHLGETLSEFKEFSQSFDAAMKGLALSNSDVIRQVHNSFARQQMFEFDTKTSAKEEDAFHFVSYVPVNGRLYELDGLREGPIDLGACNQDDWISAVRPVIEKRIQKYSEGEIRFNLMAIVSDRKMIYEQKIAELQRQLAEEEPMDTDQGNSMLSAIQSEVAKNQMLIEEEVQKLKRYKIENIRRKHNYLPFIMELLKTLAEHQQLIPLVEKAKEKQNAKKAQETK
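Material: human UCH37 enzyme supplied as purified proteasome complex / Amount: 0.15 nM proteasome as dispensed / Buffer or medium: pH 7.4 Tris-HCl (50 mM) with ovalbumin, ATP-MgCl2, DTT / Times: preincubation 30 min, reaction 25 min, room temperature / Technique: AMC fluorescence from Ub-AMC cleavage, excitation 355 nm, emission 460 nm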
B2AR ag – activates human beta-2 adrenergic receptor causing internalization; P07550; response, % (no concentration beside the values); 340,000 tested, 0.43% active; Am2.2-beta2AR cells, FAP receptor internalization, flow cytometry; reference of the scale not given here;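 active means response above a set limit, near 3 SD of response in nonfluorescent compounds, cut at about 42% in these data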;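 further: stock transfer was 100 nL into about 11 µL; a reference agonist was the positive control; negative values mostly stem from fluorescent compounds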
Target sequence (P07550 whole entry, looked up): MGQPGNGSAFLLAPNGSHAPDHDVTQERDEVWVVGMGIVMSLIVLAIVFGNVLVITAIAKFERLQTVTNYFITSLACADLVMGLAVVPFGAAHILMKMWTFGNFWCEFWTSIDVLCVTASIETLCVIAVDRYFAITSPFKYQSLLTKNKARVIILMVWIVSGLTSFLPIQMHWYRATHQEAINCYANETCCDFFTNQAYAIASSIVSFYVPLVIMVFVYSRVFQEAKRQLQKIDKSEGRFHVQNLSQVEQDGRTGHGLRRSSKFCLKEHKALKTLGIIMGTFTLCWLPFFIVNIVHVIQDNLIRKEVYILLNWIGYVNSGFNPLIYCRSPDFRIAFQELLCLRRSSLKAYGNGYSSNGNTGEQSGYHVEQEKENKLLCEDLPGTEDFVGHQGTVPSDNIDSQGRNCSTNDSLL
FGF22 binding – FGF22 (human) thermal shift binding; Q9HCT0; recombinant FGF22 thermal shift, SYPRO orange fluorescence; percent of sucrose octasulfate shift, DMSO zero; calls only at 9.99 µM; 340,000 tested, 1.5% active;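 active means melting point raised past a set limit in the mean and every replicate; three in four hits are not shown here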
LANA-H2A inh – blocks KSHV LANA binding to histone H2A/H2B; cell-free LANA-H2A/H2B peptide, fluorescence polarization; 320,000 tested, 0.6% active; inhibition, % (concentration not given with the values); in the data active means inhibition mostly above about 10%, no sharp cut-off; inactive means mostly below about 6.7%;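 further: stock transfer was 7.5 nL into about 10 µL; 0% = median of vehicle wells and 100% = median of positive control wells; one replicate is shown; the record names a cut of 25% in any replicate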
Ecoli growth – E. coli growth inhibition; Escherichia coli growth, OD600, 23 h; hits give low values; OD600 absorbance (no concentration beside the values); 330,000 tested, 0.21% active;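 active means OD600 absorbance below the run mean of sample wells minus 3.6 SD, in any replicate, cut at about 0.56 in these data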;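 further: stock transfer was 300 nL into about 60 µL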
Starred values were filed as active, the others as inactive; i = inactive; · = no result given; & = joins results of further samples. A portion of the library, so the mix of outcomes need not match the whole.

structure	HNF4A DNA FP	ALR H2O2 inh	UCH37 inh	B2AR ag	FGF22 binding	LANA-H2A inh	Ecoli growth
CCNC(=S)N1CCC(C(=O)c2ccc(Cl)cc2)CC1	1.6	·	4.5	5	i	0.3	0.65
COC(=O)[C@H](CCSC)NC(=O)Nc1ccc(C(C)C)cc1	0.5	3	5.2	-6	·	2.6	0.72
Cc1ccc(Sc2ncnc3onc(C)c23)c(C)c1	2.5	·	1.9	0	i	·	0.69
Cc1c(NS(=O)(=O)c2cccc(C(=O)N3CCC(C(N)=O)CC3)c2)c(=O)n(-c2ccccc2)n1C	6.2	-1	1.2	-1	i	-1.1	0.68
O=C(NCCC1=CCCCC1)C1CCN(S(=O)(=O)N2CCOCC2)CC1	0.7	-7	1.2	0	·	3.8	0.72
CCOC(=O)c1c(C)[nH]c(N=Nc2ccc(C)cc2C)c1C	2.5	-2	4.2	18	·	4.6	0.72
Cc1c(NC(=O)/C=C/c2cn(-c3ccccc3)nc2-c2ccc(F)cc2)c(=O)n(-c2ccccc2)n1C	1.4	·	6.0	19	i	·	0.71
Cc1noc(C)c1COc1ccc(C(=O)N2CCC(C(N)=O)CC2)cc1	4.2	-2	-1.2	-4	i	-0.1	0.68
CCN(CC)CCNc1nc(-c2ccc(OC(F)F)cc2)c(C)s1	0.6	51	2.8	10	i	1.4	0.7
O=C(O)CSCC(=O)NCc1c(Cl)cccc1Oc1ccccc1	-1.3	-5	1.2	0	i	0.3	0.63
COc1ccc(NC(=O)CN(C)C(=O)c2cc(C3CC3)nn2-c2ccccc2)cc1	3.0	-1	1.2	-9	i	-290	0.69
O=C(Nc1ccc2c(c1)OCCO2)NC1(C(F)(F)F)Oc2ccccc2O1	2.3	-1	3.4	11	i	0.6	0.73
O=C(COc1ccc(C(=O)Nc2ccc(Cl)cc2)cc1)NCc1ccccc1	0.9	-2	6.6	-1	i	-3.1	0.72
O=[N+]([O-])c1ccccc1/C=C/C=N/n1c(-c2ccc(Cl)cc2)n[nH]c1=S	-2.3	-1	·	4	·	0.4	·
COc1ccccc1Nc1nc(NCCO)nc(N2CCCC2)n1	2.4	·	3.6	-9	i	0.4	0.63
O=C(NC(c1ccccc1)c1ccccc1)N1CCOCC1	1.1	·	-1.1	-4	i	1.2	0.67
O=C(OCc1ccccc1)N1CCC2CC1c1c(-c3ccc(C(F)(F)F)cc3)cccc12 (centres undefined)	2.6	·	·	-1	i	·	·
CN(C)CCCNCCCNC(=O)/C=N/O	0.5	1	·	-6	i	-1.9	·
COc1ccc(NC(=O)CSc2nnc(-c3ccccc3C)n2N)cc1OC	-6.1	50	4.3	-8	·	-1.6	0.66
O=C(NC1CCCCCCC1)C1CCN(c2nc3ccccc3o2)CC1	-0.6	-7	0.7	-10	·	0.9	0.69
O=C(NCCCN1CCOCC1)/C(=C/c1ccco1)NC(=O)c1ccccc1	5.0	-9	2.8	0	i	0.6	0.65
O=C(NCc1cccnc1)Nc1cccc(Cl)c1Cl	1.5	-12	0.7	0	i	-7.2	0.61
COc1cc(C#Cc2c(-c3cncn3C)n(C)c3ccc(-c4cnc(OC)nc4)cc23)cc(OC)c1	2.3	3	-4.5	12	i	2.1	0.69
COc1ccc(OCc2nnc(SCC(=O)N3CCCCC3)o2)cc1	0.4	3	4.1	-4	i	3.6	0.7
CSc1ncnc2ncn(C)c12	-0.5	·	2.5	-8	i	·	0.72

The listing continues.
structure	HNF4A DNA FP	ALR H2O2 inh	UCH37 inh	B2AR ag	FGF22 binding	LANA-H2A inh	Ecoli growth
CCNC(=S)NNC(=O)c1csc2ccccc12	3.2	23	3.5	-3	·	-5.4	0.64
O=C(NCCCCNC(=O)c1ccc(Br)s1)c1ccc(Br)s1	2.0	-7	1.5	-7	·	3.1	0.75
CCN1CCCC1CN(Cc1cc2ccc(C)cc2[nH]c1=O)C(=S)Nc1ccccc1OC (centres undefined)	1.1	3	2.6	-8	·	3.8	0.66
CCOc1ccc(C(=O)Nc2ccc(S(=O)(=O)NCC3CCCO3)cc2)cc1OCC (centres undefined)	2.7	1	-1.6	-2	i	-0.5	0.71
O=c1oc2c3c4c(cc2s1)CCCN4CCC3	-35	99*	3.3	2	·	8.6	0.65
Nc1nnnn1/N=C/c1cc(Cl)cc(Cl)c1OCc1ccc(Cl)cc1Cl	1.6	-3	·	4	·	-2.4	·
Cc1cn([C@H]2C[C@H](O)[C@@H](CCC(=O)NC(c3ccccc3)c3ccccc3)O2)c(=O)[nH]c1=O	2.6	·	·	-6	i	·	·
O=Cc1sc([O-])nc1-[n+]1ccc2ccccc2c1	·	12	6.5	·	·	-4.0	0.67
O=C(Oc1cccnc1)c1cc(S(=O)(=O)N2CCCCC2)ccc1Cl	4.6	18	2.7	6	·	-2.9	0.67
O=C(CCCc1ccccc1)Nc1cccc([N+](=O)[O-])c1	0.0	·	0.9	0	i	6.2	0.65
COc1ccc(OC)c(CNC(=O)CCCc2cn(C)c3ccccc23)c1	3.6	2	2.7	-5	i	-3.9	0.76
Cc1ccc(/C=c2/sc3nnc(-c4ccccc4Cl)n3c2=O)o1	6.4	-1	·	-1	·	-2.4	·
CNC(=S)n1cnc(N)n1	0.2	-3	2.5	-5	i	2.9	0.61
O=C(Nc1ccc(F)cc1)C1CCN(c2ncnc3c2nc2n3CCCCC2)CC1	0.4	3	4.5	-12	i	0.4	0.71
COc1ccc(-c2cc(C(=O)Nc3ccccc3O)c3ccccc3n2)cc1OC	-2.1	37	-0.9	-6	i	-8.0	0.67
COc1ccc(-c2sc3ccc(OC)cc3c2-c2ccc(OC)nc2)cc1	-1.3	-1	-0.8	13	i	-4.4	0.69
COc1cc(CCNc2ccc3nnc(-c4ccccc4)n3n2)cc(OC)c1OC	1.5	1	6.9	-1	i	0.9	0.71
CC(C)c1ccc(/C=N/NC(=O)CC(=O)NC2CCCCC2)cc1	1.9	0	·	-11	i	3.1	·
c1ccc(Cn2ccc(-c3cnc(-c4ccccc4)s3)n2)cc1	-1.6	42	-157	8	·	0.8	0.74
CCCCN1C2=NCCCN2c2cc(C)c(C)cc21	0.5	-6	0.6	16	·	0.1	0.65
Cn1nc(CC(=O)N2CCN(c3ccccc3)CC2)c2ccccc2c1=O	3.2	·	-0.4	1	·	4.6	0.67
C=CCNC(=O)COc1ccc(N(C)S(=O)(=O)c2ccc(NC(C)=O)cc2)cc1	-0.1	-53	0.2	14	·	-1.9	0.7
CCOc1ccc(C2CC(=O)NC(SC)=C2C#N)cc1 (centres undefined)	0.8	-5	5.5	-8	i	-2.4	0.78
COc1ccc(OCC(O)Cn2ccnc2C)cc1 (centres undefined)	0.1	-3	1.2	5	·	-2.9	0.67
Cc1c(N2C(=O)CSC2c2ccco2)c(=O)n(-c2ccccc2)n1C (centres undefined)	0.3	-3	3.1	-1	i	2.4	0.66

Arranged by length of the SMILES (ascending): part of the list above
structure	HNF4A DNA FP	ALR H2O2 inh	UCH37 inh	B2AR ag	FGF22 binding	LANA-H2A inh	Ecoli growth
O=Cc1sc([O-])nc1-[n+]1ccc2ccccc2c1	·	12	6.5	·	·	-4.0	0.67
Cn1nc(CC(=O)N2CCN(c3ccccc3)CC2)c2ccccc2c1=O	3.2	·	-0.4	1	·	4.6	0.67
CCOc1ccc(C(=O)Nc2ccc(S(=O)(=O)NCC3CCCO3)cc2)cc1OCC (centres undefined)	2.7	1	-1.6	-2	i	-0.5	0.71
C=CCNC(=O)COc1ccc(N(C)S(=O)(=O)c2ccc(NC(C)=O)cc2)cc1	-0.1	-53	0.2	14	·	-1.9	0.7

Going on with the list:
structure	HNF4A DNA FP	ALR H2O2 inh	UCH37 inh	B2AR ag	FGF22 binding	LANA-H2A inh	Ecoli growth
CCn1ccnc1CN1CCC(n2nccc2NC(=O)CCc2ccccc2)CC1	1.2	-1	-0.4	0	i	9.7	0.61
Cc1nccn1CC1CCc2c(c3ccccc3n2C)C1=O (centres undefined)	-2.2&1.7	-14&-21	0.5&2.0	-18&7	i	-0.4&3.8	0.68&0.69&0.61
COc1cccc(CN(C(=O)/C=C/c2ccco2)C2CCS(=O)(=O)C2)c1 (centres undefined)	0.9	6	-0.3	-5	i	-1.9	0.65
O=C(Nc1ccon1)c1ccc(Br)o1	5.7	0	-1.7	-1	i	0.0	0.75
CCC(C)(C)n1nnnc1C(c1ccc2ncccc2c1)N1CCN(c2ccc(O)cc2)CC1 (centres undefined)	2.6	100*	0.7	-2	i	1.8	0.69
COCCNC(=O)c1cc2c(-c3ccccc3F)nn(C)c2s1	1.5	-1	-39	-11	·	4.4	0.69
COc1ccc(-n2c(NCCN(C)C)nc3sc4c(c3c2=O)CCCCC4)cc1	9.5	8	6.3	4	i	-4.0	0.67
COc1cc2nc(CC(C)C)n(NC(=O)c3ccccc3Br)c(=O)c2cc1OC	-1.7	4	2.5	0	i	-2.0	0.67
Cc1cccn2c(=O)c3cc(C(=O)N4c5ccccc5CC4C)n(C)c3nc12 (centres undefined)	0.2	18	-27	-3	·	0.9	0.72
O=C1CC(Sc2ncccn2)C(=O)N1c1ccccc1C(F)(F)F (centres undefined)	0.4	13	4.0	5	·	-2.7	0.7
O=C(CSCCO)Nc1cccc2ccccc12	0.2	-10	4.2	7	·	-4.8	0.66
Cc1ccc(C)c(OCCC(=O)OCC(=O)NC2CCS(=O)(=O)C2)c1 (centres undefined)	-0.6	8	4.8	1	i	5.0	0.69
Cc1c(OCc2ccc(C(=O)O)cc2)ccc2c(-c3ccccc3)cc(=O)oc12	1.6	-7	-7.4	14	i	-0.9	0.68
N#CCc1ccc(Oc2ncccn2)cc1	-0.8	-9	6.0	-1	i	-2.5	0.65
COC(=O)CCCC1=CC2=C(c3ccccc3)C(=O)C(C)(OC(=O)C3CCCC3)C(=O)C2=CN1C1CCCCC1 (centres undefined)	-2.8	-24	0.9	-9	i	9.3	0.68
Cc1cc(NC(=O)CCC(=O)N(c2ccccc2)C(C(=O)NC2CCCC2)c2ccncc2)no1 (centres undefined)	-1.0	-2	3.9	-3	·	4.1	0.68
CCN(C(=O)CSc1nc2ccccc2c(=O)n1CCOC)C1CCS(=O)(=O)C1 (centres undefined)	-6.7	-8	6.0	-7	i	-0.8	0.68
CCOCC(=O)Nc1cc(C(=O)Nc2ccc(F)cc2)ccc1Cl	·	-4	1.2	·	·	-1.7	0.67
COc1ccc(OC)c(NC(=O)C2CCN(S(=O)(=O)c3c(C)noc3C)CC2)c1	-1.4	-6	-0.1	1	·	1.0	0.67
